From PubChem BioAssay
FPR binder = human FPR ligand, with FPRL1 counter-screen | P21462 | FPR-expressing cells, fluorescent ligand binding, flow cytometry | inhibition, %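 (tested at 6.7 µM)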 | hit rate 0.74% among 24,000 | AID 440;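 also: 0% = buffer wells and 100% = receptor blocker peptide wells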
Target sequence (P21462 whole entry, looked up): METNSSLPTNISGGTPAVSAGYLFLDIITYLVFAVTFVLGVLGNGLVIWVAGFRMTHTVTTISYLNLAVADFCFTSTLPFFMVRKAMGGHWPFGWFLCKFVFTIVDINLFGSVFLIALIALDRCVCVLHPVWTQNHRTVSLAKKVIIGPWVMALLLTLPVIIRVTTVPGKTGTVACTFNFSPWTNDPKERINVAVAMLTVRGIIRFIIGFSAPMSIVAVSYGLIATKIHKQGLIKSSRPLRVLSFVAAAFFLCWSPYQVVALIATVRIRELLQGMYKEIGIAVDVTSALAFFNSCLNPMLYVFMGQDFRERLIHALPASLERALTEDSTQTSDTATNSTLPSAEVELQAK
VCAM-1 augmentation = boosters of cytokine-driven VCAM-1 levels – imaging, high-content imaging, pooled HUVEC, TNFa stimulus (AID 457) | Pooled HUVEC, TNFa-induced VCAM-1 immunofluorescence imaging; hits of this screen are not shown here | calls only | hit rate 0.2% among 10,000;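 active = a top-ranked rise in VCAM-1 staining upheld on image or statistical review; inactive = the rest, including candidates rejected on review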;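 also: compounds tested at 5 µM in the well; cells exposed to compound for 24 hours before fixing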
FPRL1 ligand = human FPRL1 ligand, with FPR counter-screen. FPRL1-expressing cells, fluorescent ligand binding inhibition, flow cytometry. inhibition, %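 (tested at 6.7 µM)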. hit rate 0.3% among 24,000. AID 441;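 also: 0% = buffer alone and 100% = receptor blocker peptide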
VCAM-1 inhibition = inhibitors of TNFa-induced VCAM-1 surface display, cell-based, plate reader, pooled HUVEC, TNFa stimulus (AID 454); inhibition, % at 5 µM; HUVEC TNFa-induced VCAM-1 surface immunofluorescence, plate reader; numbers were filed only for top-ranked candidate wells; hit rate 0.2% among 10,000;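 active = compound among top-ranked inhibitors of TNF-induced VCAM-1 adhesion protein staining, with the hit upheld by image or statistical review; inactive = the rest, including hits rejected on review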;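 also: 0% = TNFa with vehicle and 100% = cells without TNFa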
VCAM-1 down imaging = suppression of endothelial VCAM-1 upregulation – imaging, high-content imaging, pooled HUVEC, TNFa stimulus (AID 456). HUVEC TNFa-induced VCAM-1 surface expression, immunofluorescence imaging; numbers were filed only for top-ranked candidate wells. one-dose inhibition, % at 5 µM; IC50 in µM for titrated hits. hit rate 0.2% among 10,000;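 active = top tenth filtered wells with inhibition above zero that passed visual or statistical confirmation; inactive = the rest, including hits rejected on review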;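 also: 0% = stimulated vehicle wells and 100% = unstimulated cells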
* = called active by the depositor; i = inactive; . = no result given; & = joins results of further samples.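 The calls were made as follows, unless noted: active = mean above 30%; inconclusive = self-fluorescent; inactive = the rest.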 This is a subset; rates above refer to the full screens.

1) C[C@]12CCC(=O)C=C1CC[C@@H]1[C@@H]2CC[C@@]2(C)[C@H]1CC[C@]2(O)C(=O)CO
2) Oc1ccc(/C=C/c2cc(O)cc(O)c2)cc1
3) CC[N+](C)(CC)CCOC(=O)C(O)(c1ccccc1)C1CCCCC1 (stereo not drawn)
4) CCC(C)n1ncn(-c2ccc(N3CCN(c4ccc(OCC5COC(Cn6cncn6)(c6ccc(Cl)cc6Cl)O5)cc4)CC3)cc2)c1=O (stereo not drawn)
5) c1ccc(CN(CC2=NCCN2)c2ccccc2)cc1
6) CC(COc1ccccc1)NC(C)C(O)c1ccc(O)cc1 (stereo not drawn)
7) O=C(c1ccc(F)cc1)C1CCN(CCn2c(=O)[nH]c3ccccc3c2=O)CC1
8) C1CCC(C(CC2CCCCN2)C2CCCCC2)CC1 (stereo not drawn)
9) Cc1nc2ccccn2c(=O)c1CCN1CCC(C(=O)c2ccc(F)cc2)CC1
10) O=S(=O)(c1cccc2cnccc12)N1CCCNCC1

entry no. | 1 | 2 | 3 | 4 | 5 | 6 | 7 | 8 | 9 | 10
FPR binder | -2 | -3 | -6 | 15 | 4&-6 | -7 | -3 | -1 | 10 | 0
VCAM-1 augmentation | i | i | i | i | i | i | i | i | i | i
FPRL1 ligand | 0 | -6 | 1 | -7 | -2&-1 | 0 | 4 | 0 | 1 | 4
VCAM-1 inhibition | i | i | i | i | i | i | i | i | i | i
VCAM-1 down imaging | i | i | i | i | i | i | i | i | i | i

From entry 1 up to 2, as listed above:
1) C[C@]12CCC(=O)C=C1CC[C@@H]1[C@@H]2CC[C@@]2(C)[C@H]1CC[C@]2(O)C(=O)CO
2) Oc1ccc(/C=C/c2cc(O)cc(O)c2)cc1

entry no. | 1 | 2
FPR binder | -2 | -3
VCAM-1 augmentation | i | i
FPRL1 ligand | 0 | -6
VCAM-1 inhibition | i | i
VCAM-1 down imaging | i | i

2 of the compounds above, with two lines to a compound.
Results follow in this order: FPR binder, VCAM-1 augmentation, FPRL1 ligand, VCAM-1 inhibition, VCAM-1 down imaging
9	Cc1nc2ccccn2c(=O)c1CCN1CCC(C(=O)c2ccc(F)cc2)CC1
→ 10, i, 1, i, i
6	CC(COc1ccccc1)NC(C)C(O)c1ccc(O)cc1 (stereo not drawn)
→ -7, i, 0, i, i

Later entries.
11) COc1ccc(/C=C/C(=O)Nc2ccccc2C(=O)O)cc1OC
12) Cc1cc(-c2ccccc2)nnc1NCCN1CCOCC1
13) CN(C)CCOC(C)(c1ccccc1)c1ccccn1 (stereo not drawn)
14) O=C(CCNNC(=O)c1ccncc1)NCc1ccccc1
15) OCCN1CCN(CCCN2c3ccccc3Sc3ccc(Cl)cc32)CC1
16) CCN(CC)CCNC(=O)c1cc(Cl)c(N)cc1OC

entry no. | 11 | 12 | 13 | 14 | 15 | 16
FPR binder | -1 | -4 | -8 | 1 | . | -6
VCAM-1 augmentation | i | i | i | i | i | i
FPRL1 ligand | 0 | 4 | 1 | 3 | 0 | 3
VCAM-1 inhibition | i | i | i | i | i | i
VCAM-1 down imaging | i | i | i | i | i | i

Complete entries, quoted from the list:
COc1ccc(/C=C/C(=O)Nc2ccccc2C(=O)O)cc1OC is entered as FPR binder = -1; VCAM-1 augmentation = i; FPRL1 ligand = 0; VCAM-1 inhibition = i; VCAM-1 down imaging = i
OCCN1CCN(CCCN2c3ccccc3Sc3ccc(Cl)cc32)CC1 is entered as FPR binder = .; VCAM-1 augmentation = i; FPRL1 ligand = 0; VCAM-1 inhibition = i; VCAM-1 down imaging = i

Single entries from the results shown:
entry 14 | FPR binder = 1
entry 16 | FPRL1 ligand = 3
entry 15 | FPRL1 ligand = 0
entry 11 | FPR binder = -1
